# High-throughput results as filed in PubChem.
# Arbovirus anti = antivirals against arbovirus infection; arbovirus infection cell-based antiviral screen; inhibition, % at 10 µM; 0.37% of 200,000 active;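 active = inhibition from about 30%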;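 note: bluetongue infection of BSR cells; cell survival read as ATP light after 72 h; 0% = infected wells without compound and 100% = uninfected wells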
# Mtb H37Rv = M. tuberculosis H37Rv growth inhibitors, H37Rv strain (AID 1626). 0.95% of 220,000 active. M. tuberculosis H37Rv growth inhibition; higher % means a stronger effect. one-dose inhibition, % at 10 µM; IC50 in µM for titrated hits;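 active = confirmed in a dose series; inconclusive = inhibition above 80% but not taken into the dose series; inactive = below 80% or under 30% at every dose of the series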;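 note: bacteria incubated seven days before Alamar blue readout; 0% = bacteria only wells and 100% = bacteria with antibiotic wells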
# YopH inh = inhibitors of Yersinia enterocolitica YopH tyrosine phosphatase. fluorescence Ex485/Em525. inhibition, %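 (about 10 µM by stock and volumes)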. 0.16% of 140,000 active;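 active = inhibition of 50% or more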;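 note: controls were vehicle for no effect and minimum signal wells for full effect; inactives centre near -20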
# RecA intein inh = blocks M. tuberculosis RecA intein splicing; inhibition, %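 (about 9 µM by stock and volumes)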; P9WHJ3; cell-free RecA intein splicing, fluorescence; AID 2221; 0.75% of 290,000 active; in the data active = inhibition above about 30%; inconclusive = no clear call, values can overlap the other calls;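 note: 0% = vehicle wells and 100% = reference inhibitor control wells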
# Target sequence (P9WHJ3 whole entry, looked up): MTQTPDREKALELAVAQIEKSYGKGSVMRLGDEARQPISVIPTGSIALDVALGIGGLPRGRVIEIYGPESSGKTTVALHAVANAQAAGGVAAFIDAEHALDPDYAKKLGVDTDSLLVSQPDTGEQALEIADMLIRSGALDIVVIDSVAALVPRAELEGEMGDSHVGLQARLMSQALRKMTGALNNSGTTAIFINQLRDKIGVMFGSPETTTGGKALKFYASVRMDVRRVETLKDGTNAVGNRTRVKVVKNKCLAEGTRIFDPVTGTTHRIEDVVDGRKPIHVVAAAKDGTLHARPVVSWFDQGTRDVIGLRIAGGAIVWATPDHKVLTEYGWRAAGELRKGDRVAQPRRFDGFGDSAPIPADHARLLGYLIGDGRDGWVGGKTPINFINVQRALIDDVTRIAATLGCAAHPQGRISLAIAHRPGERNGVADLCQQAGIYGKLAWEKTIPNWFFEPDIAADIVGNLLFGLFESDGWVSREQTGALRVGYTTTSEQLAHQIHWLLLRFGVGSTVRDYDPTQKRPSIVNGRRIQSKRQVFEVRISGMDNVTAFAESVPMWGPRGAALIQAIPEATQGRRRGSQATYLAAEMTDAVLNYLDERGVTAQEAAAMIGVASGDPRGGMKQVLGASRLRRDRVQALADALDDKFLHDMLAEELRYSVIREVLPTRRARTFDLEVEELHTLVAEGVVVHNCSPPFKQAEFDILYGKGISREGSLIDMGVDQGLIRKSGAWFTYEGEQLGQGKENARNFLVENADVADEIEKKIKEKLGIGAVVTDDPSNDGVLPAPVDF
# Mtb betalactam = beta-lactam sensitization of Mtb H37Rv | M. tuberculosis H37Rv growth with meropenem, percent inhibition; hits of this screen are not shown here | inhibition, % at 25 µM | 0.27% of 330,000 active | AID 434955;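 active = about 74% or more and at least 40 points above the plate without the antibiotic, then above 30% in a dose series; inconclusive = first-round hits that could not be retested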;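 note: growth measured after seven days incubation then overnight dye step; 0% = bacteria only wells and 100% = bacteria with antibiotic; twin plates without the antibiotic show which effects depend on it; some results filed as inactive read as strong as hits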
# Active calls of the source: *; u = inconclusive; x = no result given. An excerpt; count on the stated rates, not on these rows.
# Values run as follows: Arbovirus anti | Mtb H37Rv | YopH inh | RecA intein inh | Mtb betalactam
> COc1ccc2nc(C)cc(NCc3ccc(F)cc3)c2c1
  x | x | x | -38.9 | -1.9
> Cc1onc(-c2ccccc2Cl)c1C(=O)Nc1cccc(-c2nc3ncccn3c2C)c1
  -4.2 | x | -38.6 | -1.7 | 3.5
> CCc1ccc(N2C(=O)CC(NNc3nc4ccccc4s3)C2=O)cc1 (stereo not drawn)
  -6.0 | -1.4% | 8.6 | 3.2 | 3.2
> NNC(=O)c1ccccc1OCc1ccccc1
  x | -7.9% | x | -1.8 | -1.1
> COCCn1c(SCC(=O)Nc2ccccc2)nc2c(oc3ccccc32)c1=O
  -18.9 | 0.7% | x | -1.8 | -2.4
> CCN(CC(=O)Nc1c(F)cccc1F)C(=O)CNC(=O)c1ccco1
  x | x | x | -2.0 | -8.2
> Cc1ccc(C(=O)NNC(=O)c2ccc(NC(=O)C(C)(C)C)cc2)cc1
  x | x | x | -0.4 | 3.2
> CC(=O)c1cccc(NC(=O)CSc2nc(=O)n(CCN3CCOCC3)c3c2CCCC3)c1
  x | x | x | -4.0 | -7.4
> NCCSc1c(-c2ccccc2)[nH]c2ccccc12
  -8.4 | 7.5% | x | 3.3 | -6.7
> O=C1CS/C(=N\C(=O)N2c3ccccc3Sc3ccccc32)N1
  1.0 | 4.8% | -17.4 | -1.2 | -2.0
> O=[N+]([O-])/C=C1/NCCN1Cc1ccc(Cl)nc1
  4.5 | -2.2% | x | -1.1 | 8.3
> COc1ccc(C(=O)N=C2CCC(C#N)=C3c4cc(OC)c(OC)cc4CCN23)cc1
  -5.4 | 1.4% | -31.0 | -2.3 | -3.4
> O=C(NCc1cccnc1)C(=O)Nc1ccc2c(c1)OCO2
  4.7 | 6.2% | x | -3.9 | -4.4
> NC(=NCCc1ccc(Cl)cc1)NS(=O)(=O)c1ccc(F)cc1
  13.1 | 5.1% | 13.5 | 0.0 | 2.5
> CCCCCCCC(=O)N/N=C/c1ccc(Br)cc1
  -4.8 | u | 7.6 | -6.1 | u
> CC1CN(C(=S)NC(=O)c2ccc(Cl)cc2)CC(C)O1 (stereo not drawn)
  x | x | x | -1.9 | 71.1
> CC(=O)Nc1ccccc1C(=O)OCC(=O)c1ccc2c(c1)OCCO2
  -0.5 | 9.0% | -22.1 | -0.1 | 15.0
> COC(=O)N=Nc1c(O)[nH]c2ccc(Br)cc12
  x | -6.7% | x | 0.7 | -1.9
> Cc1cc(C)nc(SCc2ccc(C(=O)NNC(=O)Nc3cccc(Cl)c3)cc2)n1
  -42.1 | 9.0% | -16.7 | 7.7 | 2.1
> COc1ccc(-c2nc(CS(=O)(=O)CC(=O)NCCc3cc(OC)ccc3OC)c(C)o2)cc1
  14.4 | 0.7% | -24.4 | 3.4 | -4.1
> O=C(COC(=O)CNC(=O)c1ccc(Cl)cc1Cl)NCc1ccco1
  x | x | x | -1.0 | -4.6
> N#CC(C#N)=C1C=CC=CN1/C(=C\c1ccco1)C(=O)c1ccccc1
  -32.2 | 4.5% | -4.0 | x | 1.4
> COc1ccc(C(=O)Oc2cc(C)[nH]c(=O)c2[N+](=O)[O-])cc1
  -0.9 | x | -28.2 | -0.9 | 5.1
> COc1ccc2c(c1)CC/C2=N\OC(=O)c1ccccc1C
  5.2 | -2.8% | x | 1.1 | 2.7
> COc1cccc(NC(=O)Cn2c3ccc(F)cc3c3nc4n(c(=O)c32)CCS4)c1
  x | x | x | 0.9 | 2.6
> O=C1Nc2ccccc2N(O)N1c1ccc(Cl)cc1
  -0.4 | -3.9% | x | x | -11.2
> CS(=O)(=O)c1ccc2nc(NC(=O)Oc3ccccc3)sc2c1
  -3.3 | -12.0% | -31.0 | 3.2 | -7.4
> CCOc1ccc(S(=O)(=O)N2CCOCC2)cc1NC(=O)C1CCC1
  x | x | x | -1.9 | -0.7
> c1ccc2c(-c3nc(C4CCCCC4)no3)cc(-c3ccncc3)nc2c1
  -39.8 | 7µM* | -4.7 | 8.4 | 100.0
> CCOC(=O)C1=C(C)NC(=O)NC1C(C)C (stereo not drawn)
  x | -2.4% | x | -1.4 | 0.5
> Cc1nc(N(C)C)c2sc(=S)n(C)c2n1
  1.3 | -6.6% | -38.1 | 0.7 | -8.9
> COc1cc(CN2CCCC(CO)(Cc3ccccc3C)C2)cc2c1OCO2 (stereo not drawn)
  -10.8 | 4.3% | x | -1.8 | 0.1
> N#Cc1cccc(CN2C=NS(=O)(=O)c3ccccc32)c1
  x | x | x | -1.8 | -4.4
> Cc1ccc(OCCC(=O)N(Cc2ccccc2)c2c(N)n(Cc3ccccc3)c(=O)[nH]c2=O)cc1
  x | x | x | 2.4 | -6.5
> C=CCn1c(SCC(=O)N2c3ccccc3Sc3ccccc32)nnc1-c1ccco1
  x | 2.9% | x | 8.2 | 37.2
> COc1ccc(NC(=O)C2CCCN(S(C)(=O)=O)C2)cc1 (stereo not drawn)
  x | x | x | -0.7 | -8.9
> Cn1cc(S(=O)(=O)N2CCCC2)cc1C(=O)N1CCN(c2ccccc2)CC1
  x | x | x | -1.7 | -1.1
> COc1ccc(/C=N/NC(=O)c2cccc(C(F)(F)F)c2)cc1
  -5.6 | -4.7% | x | -3.4 | 7.0
> Cc1ccc(-c2nc(C#N)c(N3CCC(C)CC3)o2)cc1
  x | x | x | -1.5 | 4.0
> CC(C)c1ccc(-c2c(C#N)c(N)nc(SCC(=O)N3CCCCCC3)c2C#N)cc1
  -12.8 | -8.3% | -2.6 | -1.0 | 1.7

# Arranged by molecular weight (low to high): some entries from above.
# Values run as follows: Arbovirus anti | Mtb H37Rv | YopH inh | RecA intein inh | Mtb betalactam
> Cc1nc(N(C)C)c2sc(=S)n(C)c2n1
  1.3 | -6.6% | -38.1 | 0.7 | -8.9
> COc1ccc(C(=O)Oc2cc(C)[nH]c(=O)c2[N+](=O)[O-])cc1
  -0.9 | x | -28.2 | -0.9 | 5.1
> Cc1onc(-c2ccccc2Cl)c1C(=O)Nc1cccc(-c2nc3ncccn3c2C)c1
  -4.2 | x | -38.6 | -1.7 | 3.5

# Retrieved by compound from the entries so far:
# Values run as follows: Arbovirus anti | Mtb H37Rv | YopH inh | RecA intein inh | Mtb betalactam
> CC(C)c1ccc(-c2c(C#N)c(N)nc(SCC(=O)N3CCCCCC3)c2C#N)cc1
  -12.8 | -8.3% | -2.6 | -1.0 | 1.7
> C=CCn1c(SCC(=O)N2c3ccccc3Sc3ccccc32)nnc1-c1ccco1
  x | 2.9% | x | 8.2 | 37.2

# The listing picks up, repeating the 4 entries before the break.
# Values run as follows: Arbovirus anti | Mtb H37Rv | YopH inh | RecA intein inh | Mtb betalactam
> Cn1cc(S(=O)(=O)N2CCCC2)cc1C(=O)N1CCN(c2ccccc2)CC1
  x | x | x | -1.7 | -1.1
> COc1ccc(/C=N/NC(=O)c2cccc(C(F)(F)F)c2)cc1
  -5.6 | -4.7% | x | -3.4 | 7.0
> Cc1ccc(-c2nc(C#N)c(N3CCC(C)CC3)o2)cc1
  x | x | x | -1.5 | 4.0
> CC(C)c1ccc(-c2c(C#N)c(N)nc(SCC(=O)N3CCCCCC3)c2C#N)cc1
  -12.8 | -8.3% | -2.6 | -1.0 | 1.7
> CCCCc1nc2ccc(S(=O)(=O)O)cc2[nH]1
  x | -1.9% | x | -0.9 | 3.6
> COc1ccc(CNC(=O)c2cc(-c3ccccc3OC)on2)cc1
  -1.7 | 11.8% | -25.7 | -1.1 | 6.1
> Cn1c(/C(C#N)=C/Nc2ccccn2)nc2ccccc21
  -4.0 | 3.1% | -1.1 | -188.4 | 70.5
> CCCCCOc1ccccc1C(=O)NCCCCCC(=O)O
  x | -5.2% | x | 1.6 | 0.0
> COc1ccc2cc(C(c3nnnn3C3CCCC3)N3CCOCC3)c3nnnn3c2c1 (stereo not drawn)
  -9.2 | -5.7% | x | 0.0 | -3.7
> Cc1ccc(N2C(=O)[C@@H]3[C@H](C2=O)[C@H]2C=CC=NN2[C@@H]3C(=O)Nc2ccc(Cl)cc2)cc1
  1.0 | 4.3% | -32.9 | 4.9 | -11.3
> CCOc1cc(CNCCO)ccc1OCC(=O)NC(C)(C)C
  7.5 | 0.5% | x | -0.5 | -6.1
> CCCCn1c(N)c(N(CC(C)C)C(=O)CSCc2cccc(C)c2)c(=O)[nH]c1=O
  x | x | x | -0.2 | -10.9
> CCC(C)Nc1nc(N)c([N+](=O)[O-])c(NCc2ccccc2)n1 (stereo not drawn)
  x | x | x | 0.8 | -3.2
> O=C(C1CCCN(Cc2cccnc2)C1)N1CCCCC1 (stereo not drawn)
  4.3 | -4.8% | -13.4 | 1.2 | -3.8
> C#CCOCCOCCOCCNc1nc(N2CCN(C(=O)C(Cc3cc4ccccc4[nH]3)n3cc(C(N)C(C)CC)nn3)CC2)nc(N2CCN(C(=O)C(Cc3cc4ccccc4[nH]3)n3cc(C(N)C(C)CC)nn3)CC2)n1 (stereo not drawn)
  -4.2 | x | x | 8.3 | 99.5
> Cc1nnc(NC(=O)CCC(=O)NC2CCCCCCC2)s1
  x | x | x | -0.8 | -1.3

# Taken from above:
# CCCCn1c(N)c(N(CC(C)C)C(=O)CSCc2cccc(C)c2)c(=O)[nH]c1=O – Mtb betalactam: -10.9
# COc1ccc2cc(C(c3nnnn3C3CCCC3)N3CCOCC3)c3nnnn3c2c1 (stereo not drawn) – Arbovirus anti: -9.2
# O=C(C1CCCN(Cc2cccnc2)C1)N1CCCCC1 (stereo not drawn) – Arbovirus anti: 4.3
# N#CC(C#N)=C1C=CC=CN1/C(=C\c1ccco1)C(=O)c1ccccc1 – Mtb H37Rv: 4.5%
# CCN(CC(=O)Nc1c(F)cccc1F)C(=O)CNC(=O)c1ccco1 – RecA intein inh: -2.0
# CS(=O)(=O)c1ccc2nc(NC(=O)Oc3ccccc3)sc2c1 – RecA intein inh: 3.2
# O=[N+]([O-])/C=C1/NCCN1Cc1ccc(Cl)nc1 – Mtb H37Rv: -2.2%
